Source: PubChem (National Center for Advancing Translational Sciences (NCATS))
Cruzain Triton = blocks cruzain activity in presence of Triton detergent. AID 1478. Potency, µM, without a hit: max response, negative = inhibition, most hits filed as inhibitors. 0.43% of 200,000 active. P25779. purified cruzain, Z-FR-AMC fluorescence, 0.01% Triton;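 further: plate controls were neutral wells for no effect and buffer without enzyme for full effect; nearly all actives have a fitted effect of over 40% in size; top concentration of the series not given in the record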
Target sequence (P25779 123-467 limits assumed): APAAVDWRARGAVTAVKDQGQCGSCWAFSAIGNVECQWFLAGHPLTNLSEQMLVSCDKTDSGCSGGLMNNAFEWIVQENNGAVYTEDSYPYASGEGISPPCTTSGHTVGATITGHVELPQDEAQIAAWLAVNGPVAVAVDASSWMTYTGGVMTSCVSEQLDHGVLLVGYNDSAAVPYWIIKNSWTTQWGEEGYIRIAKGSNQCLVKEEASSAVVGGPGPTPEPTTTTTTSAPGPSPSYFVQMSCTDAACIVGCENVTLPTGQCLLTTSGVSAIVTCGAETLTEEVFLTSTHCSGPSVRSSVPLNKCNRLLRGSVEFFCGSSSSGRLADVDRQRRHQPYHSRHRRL
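Cysteine protease activity tested under reducing, mildly acidic conditions (100 mM sodium acetate pH 5.5, 5 mM DTT) plus 0.01% Triton X-100. Cruzain 1.5 nM; substrate Z-FR-AMC 2 uM; 15 min compound preincubation at room temperature.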
NS1 inh = inhibitors of influenza NS1 protein function; Potency, µM (titrated, usually from 46.1 µM), for inactives: at the highest dose activity, positive = more growth; S. cerevisiae slowed by influenza A NS1, growth recovery by OD600; 0.4% of 270,000 active; active means well fitted rising curve with a large enough effect; inconclusive means small, poorly fitted or top-dose-only effect; inactive means no such curve, though single readings can be large or run the other way; further: nearly all actives have a fitted effect of over 50% in size
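OD600 was taken as the measure of yeast growth restored by compound in an NS1-expressing S. cerevisiae strain. Cells had been washed out of glucose medium and diluted 1:100 into galactose -URA medium, pH 6.0.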
MARV entry inh = Marburg virus entry inhibition. Marburg virus pseudotyped entry inhibition, cell reporter; control for the full effect not named in the record; about a third of the inactives were read at about 46 µM. Potency, µM (doses to about 37.8 µM), inactives show at the highest dose activity change, negative = inhibition, hits mostly inhibitors. 1.8% of 300,000 active; active = well fitted inhibition curve with a large enough effect; inconclusive = small, poorly fitted or top-dose-only effect, or effect the other way; inactive = flat fitted curve, though single readings scatter; tested in HEK293 cells; about a fifth of its hits are not listed in these tables; further: on the % scale 0 is the no-effect control and ±100 the full control effect; luciferase read-out
LASV entry inh = blocks Lassa virus binding to or entry into cells; 1.2% of 300,000 active; Potency, µM (doses to about 37.9 µM), inactives show at the top dose activity change, negative = inhibition, hits mostly inhibitors; Lassa virus pseudotype entry inhibition, cell reporter; control for the full effect not named in the record; AID 540256; active means well fitted inhibition curve with a large enough effect; inconclusive means small, poorly fitted or top-dose-only effect, or effect the other way; inactive means flat fitted curve, though single readings scatter; tested in HEK293 cells; further: on the % scale 0 is the no-effect control and ±100 the full control effect; nearly all actives have a fitted effect of over 50% in size; luciferase read-out
2A StopGo = FMDV 2A StopGo reporter, luciferase signal. human cells with a luciferase reporter of 2A StopGo recoding; control for the full effect not named in the record. Potency, µM (doses to about 57.9 µM), inactives show top-dose signal change, negative = less light. 1.2% of 410,000 active. AID 1159524; active = well fitted falling curve with a large enough effect; inconclusive = small, poorly fitted or top-dose-only effect; inactive = no such curve, though single readings can be large or run the other way; tested in HEK293T cells; further: on the % scale 0 is the no-effect control and ±100 the full control effect; nearly all actives have a fitted effect of over 45% in size; luciferase light after 4 h
SARS PLpro yeast = inhibitors of SARS-CoV papain-like protease in yeast; Potency, µM (titrated, usually from 32.9 µM), for the others: at the highest dose activity, positive = growth rescue; S. cerevisiae expressing SARS-CoV PLpro, growth rescue; control for the full effect not named in the record; 0.19% of 330,000 active; active means well fitted rising curve with a large enough effect; inconclusive means small, poorly fitted or top-dose-only effect; inactive means no such curve, though single readings can be large or run the other way; further: 0% is about no effect; nearly all actives have a fitted effect of over 55% in size; growth read by luminescence after 48 h
Cruzain inh noDet = inhibitors of Trypanosoma cruzi cruzain without detergent | Potency, µM, without a hit: max response, negative = inhibition, most hits filed as inhibitors | P25779 | purified cruzain, Z-FR-AMC fluorescence, no detergent | 2.3% of 200,000 active;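 further: plate controls were enzyme without inhibitor for no effect and buffer without enzyme for full effect; nearly all actives have a fitted effect of over 40% in size; top concentration of the series not given in the record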
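Purified cruzain at 1.5 nM, pre-incubated 15 min with compound at room temperature in 100 mM sodium acetate pH 5.5, 5 mM DTT, 0.00005% Triton X-100. Reaction started with 2 uM Z-FR-AMC; AMC fluorescence increase over 60 s gives rate.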
RE007 growth inh = less growth of the S. pombe RE007 Vpr strain | 0.21% of 360,000 active | Potency, µM (titrated, usually from 92.2 µM), inactives show top-dose activity change, negative = less growth | S. pombe RE007 Vpr strain, BacTiter-Glo ATP luminescence, 24 h; control for the full effect not named in the record; active = well fitted falling curve with a large enough effect; inconclusive = small, poorly fitted or top-dose-only effect; inactive = no such curve, though single readings can be large or run the other way;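 further: on the % scale 0 is the no-effect control and ±100 the full control effect; nearly all actives have a fitted effect of over 50% in size; the assay follows cell death caused by Vpr and the record does not say whether a fall means rescue or toxicity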
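Fission yeast strain RE007, carrying one chromosomally integrated HIV-1 vpr copy, was seeded at OD 0.01 in PMG+AL medium with 23 nL pinned compound. After 24 h at 30 °C and 99% humidity, viability was read by BacTiter-Glo luminescence.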
* = called active by the depositor; ? = inconclusive; · = no result given; & = joins results of further samples; ! = not confirmed by another sample; [ ] = another dose, or the depositor's remark. Unless noted, the call rests on the fitted dose curve; in most records, active means well fitted curve in the direction sought with a large enough effect; inconclusive means small, poorly fitted or top-dose-only effect, or another doubt; inactive means no such curve, though single readings can be large; an effect the other way counts as inactive or inconclusive. Potency means the concentration at half of the fitted maximal effect.

SMILES	Cruzain Triton	NS1 inh	MARV entry inh	LASV entry inh	2A StopGo	SARS PLpro yeast	Cruzain inh noDet	RE007 growth inh
CN(c1ccccc1)c1ccc(/C=c2\s/c(=C(/C#N)C(=O)C(C)(C)C)n(Cc3ccco3)c2=O)cc1	-11.0%	4.6%	0.0%	·	·	1.8%	3.16µM*	·
O=C1OC(=O)c2cc([N+](=O)[O-])ccc21	0.9%	·	·	·	0.0%	-0.6%	-16.5%	-0.8%
c1ccc(C2NCc3ccccc3-n3cccc32)cc1 (centres undefined)	-8.4%	-5.2%	·	·	9.7%	4.8%	-5.2%	7.7%
Cc1ccc2cc(CN(Cc3ccc(F)cc3)Cc3nnnn3C3CCCC3)c(=O)[nH]c2c1	-2.2%	-24.7%	14.6µM*!	-21.2%	·	-1.0%	17.9%	-6.8%
CC(C)(C)c1ccc(NC(=O)CN2C(=O)NC(C)(C3CC3)C2=O)cc1 (centres undefined)	·	·	18.7%	-8.6%	-21.2%	-1.6%	·	0.5%
O=C(CSc1nnc2[nH]c(=O)cc(-c3ccccc3)n12)Nc1ccc(OC(F)(F)F)cc1	0.3%	·	·	8.2%[46.1 µM]	39.1%[activator]	·	-13.8%	·
CC(C)c1ccc(NC2CCCN(C(=O)c3ccc4nccnc4c3)C2)cc1 (centres undefined)	·	-16.2%	·	·	-24.9%	-0.3%	·	0.1%
Cc1cc(C)n(C(=O)c2sc3cc(F)ccc3c2Cl)n1	-1.3%	-0.3%	-9.6%	2.4%	·	5.3%	?	·
O=c1nc(N2CCCC2)nc(N2CCCC2)[nH]1	·	-1.2%	8.2%[46.1 µM]	18.7%[46.1 µM]	1.4%	-2.0%	·	-10.6%
O=C1C(=O)N(C2CCN(C(=O)c3ccccc3F)CC2)CCN1Cc1ccc(F)cc1	2.1%	·	·	?	-16.1%	·	-11.2%	·
Cc1ncc(CN2CCN(CCC(C)C)C(CCO)C2)s1 (centres undefined)	·	-2.4%	·	·	14.9%	0.5%	·	-18.4%
CCOC(=O)c1c(NC(=O)COC(=O)CCCOc2ccc(OC)cc2)sc(C(=O)NC)c1C	·	·	0.1%	-10.0%	-13.5%	3.1%	·	-5.1%
Cc1noc(C)c1CC(=O)NC1CC(C)(C)Cc2c1cnn2-c1ccccc1 (centres undefined)	·	8.0%	-3.7%	5.6%	-8.8%	0.4%	·	15.5%
COc1ccc(OC)c(/C=N\NC(=O)CC(=O)NCCc2ccccc2)c1	·	·	?	3.1%	-19.3%	2.4%	·	8.9%
CCCc1cc(-c2nc(-c3ccc(C)cc3)cs2)ccn1	-13.1%	-3.8%	-23.1%	?	-14.0%	-33.5%	13.4%	?
Nc1c2c(nc3sc4c(c13)CCCC4)CCCC2	·	-68.0%	?	25.9%[46.1 µM]	-3.5%	-5.1%	·	-18.4%
Cn1c2nc(=O)[nH]c(=O)c-2cc2ccccc21	·	·	12.0%	12.6%	-4.4%	·	·	-6.0%
COc1ccc2c(c1)Cc1sc(NC(=O)c3cccnc3)nc1-2	·	20.9%	1.4%[46.1 µM]	8.3%	-14.7%	0.4%	·	-16.2%
COc1ccc(C(C(=O)NC2CCCC2)N(C(=O)c2snc(-c3ccc(F)cc3)c2N)c2ccc(F)cc2)cc1 (centres undefined)	3.2%	11.7%	?	-21.8%	-15.7%	5.1%	25.1µM*	11.2%
COc1cccc(CNC(=S)Nc2cccc(Cl)c2C)c1	·	-11.8%	-12.5%	-8.4%	33.9%[activator]	?	·	5.2%
CCN(CC)c1ccc2cc(C(C)=O)c(=O)oc2c1	-13.4%	-78.2%	11.3%	?	49.6%[activator]	-3.4%	6.2%	4.8%
COc1cccc(N/C(SC)=C(/C#N)C(N)=O)c1	-1.6%	-2.4%	?	?	-16.0%	-11.4%	-8.6%	3.2%
COc1cccc(Oc2coc3c(CN4CCOCC4)c(O)ccc3c2=O)c1	-2.9%	?	-6.3%	?	-6.4%	0.9%	23.1%	4.8%
CCC(=O)Nc1ccc(N2CCOCC2)c(S(=O)(=O)Nc2ccc(OC)cc2)c1	·	·	-19.3%[46.1 µM]	-17.0%	105.5%[activator]	4.7%	·	-18.4%
NC(=O)c1ccc(N2CCCC2)nc1	·	·	-7.2%[46.1 µM]	0.0%[46.1 µM]	21.1%	·	·	9.8%

Some values from the entries so far:
COc1cccc(N/C(SC)=C(/C#N)C(N)=O)c1 in Cruzain inh noDet shows -8.6%
COc1cccc(CNC(=S)Nc2cccc(Cl)c2C)c1 in 2A StopGo shows 33.9%[activator]

Back to the main list; the two compounds before the break are reprinted first.
SMILES	Cruzain Triton	NS1 inh	MARV entry inh	LASV entry inh	2A StopGo	SARS PLpro yeast	Cruzain inh noDet	RE007 growth inh
CCC(=O)Nc1ccc(N2CCOCC2)c(S(=O)(=O)Nc2ccc(OC)cc2)c1	·	·	-19.3%[46.1 µM]	-17.0%	105.5%[activator]	4.7%	·	-18.4%
NC(=O)c1ccc(N2CCCC2)nc1	·	·	-7.2%[46.1 µM]	0.0%[46.1 µM]	21.1%	·	·	9.8%
Cc1cc(NC(=O)C2CC(c3ccc(F)cc3)=NO2)n(-c2ccccc2)n1 (centres undefined)	-3.2%	3.9%	·	·	?	16.3%	-4.6%	8.5%
CCN(CC(=O)NC1CCS(=O)(=O)C1)S(=O)(=O)c1cc(C)ccc1C (centres undefined)	·	·	?	-9.9%[46.1 µM]	5.5%	6.4%	·	-17.9%
CCOc1cc(/C=C(/C#N)C(=O)Nc2ccc(OC)cc2)ccc1OCc1ccc(C(=O)O)cc1	·	11.8%	-2.6%[46.1 µM]	-1.6%[46.1 µM]	?	-3.4%	·	2.7%
COc1ccc(C(=O)Nc2nc3ccccc3s2)c(OC)c1	·	-27.8%	?	·	0.126µM*	-20.2%	·	?
COc1ccc(C(=O)NNC(=O)CSc2nnc(COc3ccc4ccccc4c3)n2C)cc1	3.9%	-0.5%	3.6%	?	20.1%	2.4%	?	19.0%
Cc1cc2c(cc1S(=O)(=O)NCc1ccccc1Cl)OCCN2C	1.0%	3.3%	·	4.6%[46.1 µM]	102.7%&62.4%[activator]	3.1%	?	1.1%
Cc1csc2ncc(C(=O)NCc3ccc4c(c3)OCO4)c(=O)n12	-1.2%	-111.9%	·	·	-7.1%	-6.5%	-22.1%	-8.7%
COC(=O)c1cc(S(=O)(=O)N(C)C2CCCCC2)cn1C	·	0.9%	·	·	23.9%	-3.6%	·	-2.0%
CCOC(=O)C1CCN(c2nc3c(S(=O)(=O)c4ccc(C)c(C)c4)nnn3c3ccc(Cl)cc23)CC1	-5.2%	·	-19.9%[46.1 µM]	·	19.2%	·	-21.3%	·
CCN(CC)S(=O)(=O)c1ccc(NC2c3ccccc3C(=O)N2Cc2ccc3c(c2)OCO3)cc1 (centres undefined)	-3.2%	-33.4%	-3.2%	·	8.5%	-0.5%	-29.9%	2.9%
O=C1c2ccccc2C(=O)N1c1cccc(-c2nc3ccccc3o2)c1	3.3%	-9.1%	0.1%	11.7%	-7.0%	-3.6%	3.5%	-12.0%
COC(=O)CN1C(=O)C(O)(CC(=O)c2ccc(C)cc2)c2cc(Br)ccc21 (centres undefined)	-5.1%	-17.5%	2.6%	·	-11.1%	6.0%	13.6%	-5.5%
COCCNC(C)C(=O)Nc1ccc(Br)cc1 (centres undefined)	-1.6%	4.4%	5.4%	1.0%	·	2.1%	-1.1%	2.2%
COc1ccc(NC(=O)CN(c2ccccc2)S(=O)(=O)c2ccccc2)c(OC)c1	·	-37.8%	·	·	-6.5%	0.9%	·	5.0%
Cn1c(SCC(=O)Nc2nc3ccccc3s2)ncc(C(=O)Nc2ccccc2)c1=O	-0.4%	·	·	21.4%[46.1 µM]	28.3%	·	9.4%	·
COc1ccc(NC(=O)Cn2cc(C(=O)C3CCCCC3)c3ccccc32)cc1	-4.9%	·	1.8%[46.1 µM]	0.7%[46.1 µM]	-11.3%	·	0.2%	·
COc1ccc(NS(=O)(=O)c2ccc(Cl)c(NC(=O)c3ccccc3F)c2)cc1	·	·	?	?	-1.9%	-6.9%	·	2.6%
O=C(/C=C/c1ccc2c(c1)OCCCO2)c1ccc2ccccc2c1O	-1.6%	5.4%	?	15.4%	27.6%	-0.9%	?	24.3%
COc1ccc(N2C(=O)C3C(C2=O)C3(c2ccccc2)c2ccccc2)cc1 (centres undefined)	·	-5.0%	?	?	10.4%	-1.4%	·	-5.1%
COc1ccc(NC(=O)CCc2nc(C3=CCN(Cc4cccc(Cl)c4)CC3)no2)c(OC)c1	-0.3%	·	·	17.9%[46.1 µM]	?	·	-12.5%	·
N#CC1=C(N)N2C(=C(C#N)C13CCN(Cc1ccccc1)CC3)Nc1ccccc12	0.5%	21.3%	-21.4%	4.5%	-2.3%	-2.4%	-2.4%	-1.3%
CCN(CC(=O)NC1CCS(=O)(=O)C1)C(=O)C(c1ccccc1)c1ccccc1 (centres undefined)	1.5%	0.5%	9.5%&9.5%	-0.4%	-10.5%	-1.4%	-5.6%	4.3%
Cc1ncc(CN2CCC(C(=O)Nc3cccc(-c4cscn4)c3)CC2)cn1	·	-8.6%	-7.4%	8.1%	?	-0.5%	·	-1.6%
Cc1ccc(-c2cc(-c3ccc(C)o3)nc(N)c2C#N)cc1	-5.7%	-63.5%	0.5%	18.4%	?	-26.9%	?	?

Single records, from the list above.
`O=c1nc(N2CCCC2)nc(N2CCCC2)[nH]1` is listed as Cruzain Triton = ·; NS1 inh = -1.2%; MARV entry inh = 8.2%[46.1 µM]; LASV entry inh = 18.7%[46.1 µM]; 2A StopGo = 1.4%; SARS PLpro yeast = -2.0%; Cruzain inh noDet = ·; RE007 growth inh = -10.6%
`COc1cccc(Oc2coc3c(CN4CCOCC4)c(O)ccc3c2=O)c1` is listed as Cruzain Triton = -2.9%; NS1 inh = ?; MARV entry inh = -6.3%; LASV entry inh = ?; 2A StopGo = -6.4%; SARS PLpro yeast = 0.9%; Cruzain inh noDet = 23.1%; RE007 growth inh = 4.8%
